Screens from PubChem.
YopH PTP inh: YopH (Yersinia) phosphatase inhibition; fluorescence Ex485/Em525; inhibition, %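 (about 10 µM by stock and volumes)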; 140,000 compounds, 0.16% hits; AID 898;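 active = inhibition of 50% or more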;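 note: controls were vehicle for no effect and minimum signal wells for full effect; inactives centre near -20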
Arbovirus anti: antivirals against arbovirus infection; arbovirus infection cell-based antiviral screen; inhibition, % at 10 µM; 200,000 compounds, 0.37% hits; AID 1251;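 active = inhibition from about 30%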;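 note: bluetongue infection of BSR cells; cell survival read as ATP light after 72 h; 0% = infected wells without compound and 100% = uninfected wells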
Mtb H37Rv: M. tuberculosis H37Rv growth inhibitors, H37Rv strain (AID 1626); M. tuberculosis H37Rv growth inhibition; higher % means a stronger effect; inhibition, % at 10 µM, or IC50 in µM where a hit was titrated; 220,000 compounds, 0.95% hits;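 active = confirmed in a dose series; inconclusive = inhibition above 80% but not taken into the dose series; inactive = below 80% or under 30% at every dose of the series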;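 note: bacteria incubated seven days before Alamar blue readout; 0% = bacteria only wells and 100% = bacteria with antibiotic wells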
RecA splice inh: inhibitors of M. tuberculosis RecA intein splicing; 290,000 compounds, 0.75% hits; inhibition, %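 (about 9 µM by stock and volumes)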; P9WHJ3; cell-free RecA intein splicing, fluorescence; in the data active = inhibition above about 30%; inconclusive = no clear call, values can overlap the other calls;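 note: 0% = vehicle wells and 100% = reference inhibitor control wells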
Target sequence (P9WHJ3 whole entry, looked up, canonical isoform): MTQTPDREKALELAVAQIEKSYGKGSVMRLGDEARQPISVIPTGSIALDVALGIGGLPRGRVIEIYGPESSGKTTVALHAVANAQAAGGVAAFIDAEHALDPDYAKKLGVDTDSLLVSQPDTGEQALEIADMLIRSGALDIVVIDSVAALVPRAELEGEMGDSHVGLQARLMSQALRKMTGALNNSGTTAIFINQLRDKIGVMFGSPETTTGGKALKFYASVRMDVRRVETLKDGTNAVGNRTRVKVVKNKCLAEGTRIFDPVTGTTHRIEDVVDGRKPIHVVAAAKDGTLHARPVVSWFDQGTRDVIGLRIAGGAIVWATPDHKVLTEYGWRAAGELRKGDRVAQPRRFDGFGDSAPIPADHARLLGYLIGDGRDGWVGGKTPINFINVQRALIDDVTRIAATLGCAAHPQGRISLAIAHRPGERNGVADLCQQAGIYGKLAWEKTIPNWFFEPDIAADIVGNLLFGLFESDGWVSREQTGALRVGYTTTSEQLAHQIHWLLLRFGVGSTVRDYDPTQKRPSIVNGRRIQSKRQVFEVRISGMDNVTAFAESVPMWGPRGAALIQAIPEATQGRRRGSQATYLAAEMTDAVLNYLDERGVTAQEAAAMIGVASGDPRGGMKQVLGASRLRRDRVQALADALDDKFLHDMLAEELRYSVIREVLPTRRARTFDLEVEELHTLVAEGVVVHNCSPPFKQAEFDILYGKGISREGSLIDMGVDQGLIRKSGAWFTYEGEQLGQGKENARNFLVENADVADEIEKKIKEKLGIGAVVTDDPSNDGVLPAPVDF
Mtb bLac sens: beta-lactam sensitization of Mtb H37Rv; 330,000 compounds, 0.27% hits; M. tuberculosis H37Rv growth with meropenem, percent inhibition; hits of this screen are not shown here; inhibition, % at 25 µM;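 active = about 74% or more and at least 40 points above the plate without the antibiotic, then above 30% in a dose series; inconclusive = first-round hits that could not be retested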;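 note: growth measured after seven days incubation then overnight dye step; 0% = bacteria only wells and 100% = bacteria with antibiotic; twin plates without the antibiotic show which effects depend on it; some results filed as inactive read as strong as hits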
Arbovirus anti repeat: second read-out of Arbovirus anti, no call of its own (marks repeat the call); inhibition, %; measured here: 10K subset replicate screen; many hits read low in the repeat;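 first of two repeat runs on a subset; 0% = infected and 100% = uninfected wells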
Starred values were filed as active, the others as inactive; ? = inconclusive; nt = no result given. Some of the compounds tested (hit frequency here may not be typical).

SMILES | YopH PTP inh | Arbovirus anti | Mtb H37Rv | RecA splice inh | Mtb bLac sens | others
N#CC1=C(N)NC(SCC(=O)c2ccc(Br)cc2)=C(C#N)C12CCCCC2 | -2 | -32 | 79% | 9.0 | 99
CC1CN(c2cnn(C(C)C)c(=O)c2Cl)CC(C)O1 (stereo not given) | nt | nt | nt | 0.6 | 2
Cc1nn(CC(=O)NC(=O)NC2CCCC(C)C2C)c(=O)c(C#N)c1C (stereo not given) | nt | nt | nt | 10 | -3
Cc1ccccc1C(=O)NNC(=O)/C=C/c1ccccc1 | nt | -1 | -1% | -1.4 | 3
CCc1ccc2nc(N(CCCN(C)C)C(=O)c3ccc(S(=O)(=O)N(C)C4CCCCC4)cc3)sc2c1 | nt | nt | nt | 2.1 | 98
CCOC(=O)CNC(=O)N1CCCC(C(=O)c2cccc(Cl)c2)C1 (stereo not given) | nt | 3 | 0% | 0.5 | 6
O=C(O)c1ccc(CN2C(=O)c3ccc(C(=O)O)cc3C2=O)cc1 | nt | nt | nt | -1.8 | 0
CC(C)CCn1nnnc1CN1CCN(c2ccc(F)cc2)CC1 | nt | 10 | -3% | nt | -4
Cc1cc(C(=O)Nc2ccccc2)nn1C(C)(C)C | nt | nt | 8% | 5.5 | 57
COc1ccnc(CSC(N)=Nc2ccccc2C(F)(F)F)c1 | -32 | 5 | 34% | 2.7 | -2
CCOc1ccc(C(=O)OCC(=O)NCCNC(=O)COC(=O)c2ccc(OCC)cc2)cc1 | nt | nt | nt | 17 | 6
O=C(Nc1ccc2c(c1)OCO2)c1cc(-c2cccnc2)nc2ccccc12 | nt | -13 | 13% | 11 | 17
CC(C)C1Oc2ccccc2N(CC(=O)NCCCN2C(C)CCCC2C)C1=O (stereo not given) | -5 | -5 | -11% | -0.2 | -9
COC(=O)C1=C(C(=O)OC)N2C=CC=CC2(C)C(C(=O)OC)=C1C(=O)OC (stereo not given) | -27 | 2 | 10% | 2.4 | -4
COc1ccc(N2CCN(C(=O)Nc3ccccc3C)CC2)cc1 | nt | -6 | -3% | -2.1 | -2
CC(C)(C)c1ccc(CN2C3=NCCCN3c3ccccc32)cc1 | -4 | -36 | -5% | 4.5 | -4
CCCC(=O)Nc1nc2ccc(OC)cc2s1 | -24 | -3 | 2% | -5.2 | 4 | Arbovirus anti repeat=-2
CCCCNS(=O)(=O)c1ccc(NC(=O)C2CCCO2)cc1 (stereo not given) | -26 | 6 | 6% | 0.8 | 0
Cc1ccc(C(=O)OCN2C(=O)c3ccccc3C2=O)o1 | nt | nt | nt | 0.8 | -5
Cc1ccc(NC(=O)CN(C)C(=O)c2ccc(S(=O)(=O)N(C)c3ccccc3)cc2)cc1 | nt | 6 | 4% | 0.5 | -7
O=C(CCSc1ccccc1)NCCSCc1ccccc1 | -11 | -5 | -7% | 3.5 | 8
Cc1cccc(Nc2nnc(SCC(=O)c3ccc(O)cc3O)s2)c1 | nt | nt | nt | 4.4 | 2
Cc1ccc(S(=O)(=O)N(C)C)cc1NC(=O)COC(=O)C1CCN(S(=O)(=O)c2cccs2)CC1 | nt | nt | nt | -1.1 | -11
O=C(Nc1cc(Cl)ccc1O)C1CCCO1 (stereo not given) | -7 | 3 | 55% | -1.5 | 43
O=C(Cn1nnc2ccccc21)c1ccc(Cl)cc1 | nt | nt | 2% | 4.8 | -2
Cc1ccc(C(=O)c2cc([N+](=O)[O-])ccc2N2CC(C)OC(C)C2)cc1 (stereo not given) | -10 | -12 | -2% | 4.6 | -9
O=c1[nH]c(SCCN2CCOCC2)nc(O)c1-c1ccccc1 | nt | nt | 20% | -3.1 | 99
O=C(OCc1cc2ccccc2[nH]c1=O)c1ccccc1 | -2 | 5 | -4% | 2.8 | 0
Cc1ccc(NNS(=O)(=O)c2ccc(C)cc2)cc1 | -35 | -1 | -4% | -0.6 | -1
O=C(CCCCCN1C(=O)CCC1=O)Nc1ccc2c(c1)OCO2 | -25 | 5 | 4% | 1.9 | -3
O=C(O)c1cc(Br)ccc1NN=C1CCCCC1 | -5 | 0 | -5% | -6.7 | 6
CC(=O)C1=C(O)C(=O)N(Cc2ccccc2)C1c1ccc(F)cc1 (stereo not given) | nt | nt | nt | -5.4 | -9
CN(C)CCn1c2ccccc2c2nc3ccc([N+](=O)[O-])cc3cc21 | nt | nt | 31% | -12 | 51
Cc1cc(C)c(C#N)c(OCC(=O)Nc2ccccc2)n1 | nt | nt | nt | -1.1 | 4
Cc1sc2ncnc(NC3CCN(Cc4ccccc4)CC3)c2c1C | nt | -2 | 8% | -0.4 | 6
CNC(=S)N/N=C/c1ccc2c(c1)OCCO2 | -22 | -3 | 3% | -2.5 | -12
COc1ccc(/C=C/C(=O)Nc2ccc(OC)cc2[N+](=O)[O-])cc1 | -6 | 10 | -3% | 0.3 | 0
COc1ccccc1N(CC(=O)Nc1c(C)cccc1C)S(C)(=O)=O | 1 | 4 | -11% | -1.1 | 7 | Arbovirus anti repeat=2
Cc1ccc(N=C2NC(=O)/C(=C/c3cn(C)c4ccccc34)S2)cc1C | -11 | -9 | 78% | nt | 6
CCOC(=O)C1(Cc2ccccc2)CCN(Cc2cccn2-c2nccs2)CC1 | nt | 5 | 75% | 3.0 | -2

Continued, overlapping the part above by 3 compounds.
SMILES | YopH PTP inh | Arbovirus anti | Mtb H37Rv | RecA splice inh | Mtb bLac sens | others
COc1ccccc1N(CC(=O)Nc1c(C)cccc1C)S(C)(=O)=O | 1 | 4 | -11% | -1.1 | 7 | Arbovirus anti repeat=2
Cc1ccc(N=C2NC(=O)/C(=C/c3cn(C)c4ccccc34)S2)cc1C | -11 | -9 | 78% | nt | 6
CCOC(=O)C1(Cc2ccccc2)CCN(Cc2cccn2-c2nccs2)CC1 | nt | 5 | 75% | 3.0 | -2
C/C=C(/C)C(=O)O[C@@H]1[C@H](OC(C)=O)c2c(ccc3ccc(=O)oc23)OC1(C)C | -7 | 1 | 8% | 1.5 | -3
Cc1cc(C)c(OCC(=O)Nc2ccccc2N2CCOCC2)c(C)c1 | -13 | -3 | 7% | 2.2 | -7
O=C(CSc1nnc(CNc2ccc(Cl)cc2)o1)Nc1nc2c(s1)CCCC2 | -28 | -7 | 10% | nt | 8
CCOC(=O)c1csc(NNC=O)n1 | -7 | 15 | 9% | -4.5 | 0
COc1ccc(/C=C/C(=O)NC(=S)NNC(=O)c2cc(OC)c(OC)c(OC)c2)cc1 | nt | nt | 5% | 0.8 | -1
CCOC(=O)c1c(C)n(Cc2ccccc2)c2ccc(OCC(O)Cn3nc(C)nc3C)cc12 (stereo not given) | -18 | -7 | nt | 1.4 | 20 | Arbovirus anti repeat=2
Cc1ccc(C)c(NC(CC(=O)c2ccccc2)C(=O)OCC(=O)c2cccs2)c1 (stereo not given) | -30 | -2 | ? | -3.1 | 99
CN(CCNC(=O)CN1C(=O)CSc2ccc(S(=O)(=O)N3CCCC3)cc21)Cc1ccccc1 | nt | -4 | 4% | 1.4 | 8
Cn1c(=O)c2cnc(-c3ccc(C(F)(F)F)cc3)nc2n(C)c1=O | nt | nt | -7% | -2.4 | -3
O=C(Nc1ccc(NC(=O)c2ccco2)nc1)c1cccnc1 | -19 | -10 | -2% | -2.4 | 3
CCOc1cc(C2c3c(oc4cc(C)c(Cl)cc4c3=O)C(=O)N2Cc2ccco2)ccc1O (stereo not given) | -7 | -16 | -10% | -0.1 | -14
CC(C)N1C(=O)CCC1C(=O)N1CCN(c2ccc(F)cc2)CC1 (stereo not given) | nt | nt | -3% | -0.5 | -9
O=C(/C=C/c1ccc2c(c1)OCCO2)N1CCN(c2ccc(F)cc2)CC1 | nt | nt | nt | 6.5 | -2
CN(C)CC(O)COc1ccc(-c2ccc(C#N)cc2)cc1 (stereo not given) | -9 | -20 | 11% | 3.6 | -3
CCN1CCc2nc(NC(=O)c3ccccc3)sc2C1 | -16 | -5 | nt | -19 | 4
CCOc1ccc(C(CC(=O)O)NC(=O)c2ccco2)cc1OC (stereo not given) | -2 | 2 | -1% | 0.7 | -12
O=c1[nH]cnc2sc3c(c12)CCCCC3 | nt | 6 | 61% | 0.6 | 70
COC(=O)CC1C(=O)NCCN1C(=S)NC(=O)C(c1ccccc1)c1ccccc1 (stereo not given) | -26 | -2 | 1% | 1.6 | 5
Cc1cc(Cl)ccc1OCCCC(=O)N1CCCCC1 | -8 | 6 | -14% | 4.0 | -3
O=C1CCCC/C1=C/Nc1ccc(S(=O)(=O)Nc2ncccn2)cc1 | -28 | 4 | -12% | -1.5 | 47

Filtered by structure: the entries above with a tert-butyl group (two)
SMILES | YopH PTP inh | Arbovirus anti | Mtb H37Rv | RecA splice inh | Mtb bLac sens | others
Cc1cc(C(=O)Nc2ccccc2)nn1C(C)(C)C | nt | nt | 8% | 5.5 | 57
CC(C)(C)c1ccc(CN2C3=NCCCN3c3ccccc32)cc1 | -4 | -36 | -5% | 4.5 | -4

(listing goes on)
SMILES | YopH PTP inh | Arbovirus anti | Mtb H37Rv | RecA splice inh | Mtb bLac sens | others
COc1nccc(C(F)(F)F)c1C(=O)NC(=O)Nc1c(C)cccc1C | nt | nt | 0% | -2.6 | -1
O=C(CCCC(=O)N1CCCc2ccccc21)N1CCCc2ccccc21 | -29 | -2 | -11% | 1.6 | 2 | Arbovirus anti repeat=8
CC1=C(C(=O)OCc2ccccc2)C(c2ccccc2Br)NC(=O)N1 (stereo not given) | nt | nt | nt | -0.1 | -3
CSc1nc(Oc2ccc(F)cc2F)cc(C(F)(F)F)n1 | -31 | 3 | -4% | 4.9 | 8
O=S1(=O)CCOCCCN1Cc1cccc(C(F)(F)F)c1 | nt | nt | nt | 0.9 | -7
O=C(Oc1ccccc1)N(c1ccccc1)c1ccccc1 | nt | nt | 23% | 0.3 | 0
CCCN(CCC)C(=O)CSc1nc2c(sc(=S)n2-c2ccc(OCC)cc2)c(=O)[nH]1 | nt | 42* | 6% | 4.8 | 7
COc1cc(NC(=O)c2ccc([N+](=O)[O-])cc2)c(OC)cc1NC(=O)CC(C)C | nt | 1 | 3% | 2.0 | 3
c1ccc(-n2ncc3c(NCc4ccccn4)ncnc32)cc1 | -9 | -6 | 0% | -3.8 | -4
Cc1cc(SCC(=O)N/N=C/c2ccc(O)cc2O)nc2ccccc12 | nt | nt | nt | 4.9 | 2
CC(OC(=O)c1ccccc1)C(=O)NCCC1=CCCCC1 (stereo not given) | nt | 3 | 2% | 1.2 | -5
CCOc1ccc(-c2nnc(-c3ccccc3)n2-c2ccccc2)cc1 | -32 | -11 | -30% | 3.1 | 12
COc1ccccc1NC(=O)N(Cc1ccco1)Cc1cc2cccc(C)c2[nH]c1=O | 34 | 1 | 8% | 2.9 | -4
CCCCC(CCC(=O)Nc1cc([N+](=O)[O-])ccc1O)C(=O)O (stereo not given) | nt | 4 | -4% | 1.5 | -10
Cc1ccc(NC(=O)C2C(=O)N(CCO)C3(C)CC2c2ccccc2O3)cc1 (stereo not given) | -87 | -1 | 4% | 1.6 | 7
O=C(Nc1nc2cc3c(cc2s1)OCO3)c1ccco1 | nt | nt | -4% | -0.5 | nt
Cc1cccc(NC(=O)c2ccc(S(=O)(=O)NCc3cccnc3)cc2)c1C | nt | nt | nt | 0.6 | 5
Nc1nnc(SCCOc2ccc(Br)cc2)s1 | -42 | 6 | -3% | 0.8 | 53
CCN(CC(=O)NCc1cccs1)C(=O)/C=C/c1ccc(OC)c(OC)c1 | nt | nt | nt | 1.5 | -1
COc1cccc(-c2[nH]nc3c2C(c2ccc(C)o2)C(C#N)=C(N)O3)c1 (stereo not given) | 7 | 8 | 4% | 78* | -4
O=C(Nc1cc(C(F)(F)F)ccc1-n1cnc2ccccc21)c1ccccc1 | -19 | -2 | 3% | 0.1 | -7
CCN(CC(O)CON=C1c2ccccc2-c2ccccc21)S(=O)(=O)c1ccc(C)cc1 (stereo not given) | -3 | -19 | 10% | 7.4 | 0
Cc1cc(S(=O)(=O)N2CCOCC2)ccc1OCC(=O)N1CCC(C)CC1 | nt | nt | nt | -0.5 | 0
CC1(C)C2CC=C(CN3CCOCC3)C1C2 (stereo not given) | -9 | 5 | 4% | -3.9 | -12
CCCc1cc(=O)[nH]c(SCC(=O)Nc2nonc2C)n1 | nt | nt | nt | -1.5 | 24
CCn1ncc(Br)c1C(=O)Nc1ccc2c(c1)OCCO2 | nt | 2 | 2% | -3.9 | 3
O=C(CSc1nnc(-c2cccnc2)n1Cc1ccco1)NCc1ccc2c(c1)OCO2 | -41 | 7 | -9% | -2.9 | 0
O=C(O)c1cc(N/N=C2/CC(c3ccccc3)Oc3ccccc32)ccc1Cl (stereo not given) | -20 | 32* | 3% | 1.1 | 13
CCN1CCN(C(=O)c2oc(=O)c3ccccc3c2-c2ccc(C)cc2)CC1 | -27 | -3 | -3% | -7.1 | 3 | Arbovirus anti repeat=-2
COc1ccc([N+](=O)[O-])cc1NC(=O)CCc1ccccc1 | -37 | -10 | nt | 3.4 | -2
